Screens: PubChem, several laboratories
Mtb growth – M. tuberculosis H37Rv growth inhibitors, H37Rv strain (AID 1626). M. tuberculosis H37Rv growth inhibition; higher % means a stronger effect. inhibition, % at 10 µM; hits with a dose series show IC50 in µM. 220,000 tested, 0.95% active;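 active means confirmed in a dose series; inconclusive means inhibition above 80% but not taken into the dose series; inactive means below 80% or under 30% at every dose of the series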;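 further: bacteria incubated seven days before Alamar blue readout; 0% = bacteria only wells and 100% = bacteria with antibiotic wells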
YopH PTP inh – inhibitors of Yersinia enterocolitica YopH tyrosine phosphatase; 140,000 tested, 0.16% active; fluorescence Ex485/Em525; inhibition, %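 (about 10 µM by stock and volumes)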;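 active means inhibition of 50% or more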;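 further: controls were vehicle for no effect and minimum signal wells for full effect; inactives centre near -20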
RecA splice inh – Mtb RecA intein splicing inhibition; P9WHJ3; cell-free RecA intein splicing, fluorescence; inhibition, %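 (about 9 µM by stock and volumes)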; 290,000 tested, 0.75% active; in the data active means inhibition above about 30%; inconclusive means no clear call, values can overlap the other calls;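 further: 0% = vehicle wells and 100% = reference inhibitor control wells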
Target sequence (P9WHJ3 whole entry, looked up, canonical isoform): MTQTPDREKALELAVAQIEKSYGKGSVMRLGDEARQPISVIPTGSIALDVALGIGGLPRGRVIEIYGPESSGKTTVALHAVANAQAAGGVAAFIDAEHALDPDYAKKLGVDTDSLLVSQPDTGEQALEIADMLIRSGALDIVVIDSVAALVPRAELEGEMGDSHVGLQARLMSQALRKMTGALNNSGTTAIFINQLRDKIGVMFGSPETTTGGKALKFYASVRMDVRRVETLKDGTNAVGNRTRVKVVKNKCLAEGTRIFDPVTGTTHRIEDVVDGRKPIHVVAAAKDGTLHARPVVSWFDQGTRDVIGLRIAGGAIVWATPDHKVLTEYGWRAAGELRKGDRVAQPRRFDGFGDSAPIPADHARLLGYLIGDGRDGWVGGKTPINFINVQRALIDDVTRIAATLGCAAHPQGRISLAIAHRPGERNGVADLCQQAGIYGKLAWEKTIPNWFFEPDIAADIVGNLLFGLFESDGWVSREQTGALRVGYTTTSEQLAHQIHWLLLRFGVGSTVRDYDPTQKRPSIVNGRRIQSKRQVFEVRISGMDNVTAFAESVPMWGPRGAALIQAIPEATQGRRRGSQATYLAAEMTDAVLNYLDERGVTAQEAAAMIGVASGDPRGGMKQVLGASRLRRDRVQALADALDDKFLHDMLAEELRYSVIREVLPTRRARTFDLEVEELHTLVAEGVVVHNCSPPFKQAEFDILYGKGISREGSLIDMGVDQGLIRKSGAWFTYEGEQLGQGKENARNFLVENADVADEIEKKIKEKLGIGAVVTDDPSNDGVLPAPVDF
Mtb betalactam – beta-lactam sensitization of Mtb H37Rv; M. tuberculosis H37Rv growth with meropenem, percent inhibition; hits of this screen are not shown here; 330,000 tested, 0.27% active; AID 434955; inhibition, % at 25 µM;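 active means about 74% or more and at least 40 points above the plate without the antibiotic, then above 30% in a dose series; inconclusive means first-round hits that could not be retested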;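 further: growth measured after seven days incubation then overnight dye step; 0% = bacteria only wells and 100% = bacteria with antibiotic; twin plates without the antibiotic show which effects depend on it; some results filed as inactive read as strong as hits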
Arbovirus anti – blocks arbovirus infection; 200,000 tested, 0.37% active; inhibition, % at 10 µM; arbovirus infection cell-based antiviral screen;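 active means inhibition from about 30%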;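 further: bluetongue infection of BSR cells; cell survival read as ATP light after 72 h; 0% = infected wells without compound and 100% = uninfected wells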
* marks the source's active call; other numbers are inactive results; ? = inconclusive; / = no result given. These rows are one share of the data; rates above refer to the full screens.

SMILES	Mtb growth	YopH PTP inh	RecA splice inh	Mtb betalactam	Arbovirus anti
O=C(COC(=O)/C=C/c1ccccc1[N+](=O)[O-])NC1CC1	0%	/	-0.4	-4	-4
C/C=C(\C)CN1CCN(c2ccc(C)cc2)CC1	-6%	-10	-1.9	-6	-3
COc1cc(C2CC(=O)C3=C(C2)Nc2ncnn2C3c2cccs2)cc(OC)c1OC (centres undefined)	-2%	/	0.2	-7	/
COc1ccc(C(=O)NCC2CCCO2)cc1S(=O)(=O)N1CCCc2ccccc21 (centres undefined)	0%	/	1.5	1	-1
CC(=O)Nc1ccc(NC(=O)CC(NC(=O)c2ccccc2)c2ccccc2)cc1 (centres undefined)	/	/	-0.6	1	/
CCC(=O)C1CCCN(C(=O)c2ccc(OC3CCN(C(=O)c4cccnc4)CC3)cc2)C1 (centres undefined)	8%	/	-2.1	4	3
O=c1c([N+](=O)[O-])c(O)c2cccc3c2n1CCC3	/	/	-3.3	8	/
O=C(/C=C/c1c(Cl)cccc1Cl)NCCc1ccccc1	0%	-38	0.1	-2	-1
Cc1cc(O)c(C(C)C)cc1C1(c2cc(C(C)C)c(O)cc2C)OC(=O)c2ccccc21	29%	/	2.8	-5	/
Cc1ccsc1/C=C(\C(=O)c1ccc(OC(C)C)cc1)c1nc2ccccc2o1	3%	-41	16	0	13
CCO[C@H]1OC(C(=O)N2CCOCC2)=C[C@@H](c2ccc(Br)cc2)[C@@H]1CCCO	-2%	/	1.9	-7	1
COCCNc1nc2c(c(=O)[nH]c(=O)n2C)n1CCCc1ccccc1	/	/	-0.7	-1	/
OC(CNc1ccccc1)Cn1ccc2ccccc21 (centres undefined)	20%	/	0.3	3	7
COc1ccc(CNC(=O)CN(Cc2ccc(Cl)cc2)S(C)(=O)=O)cc1	6%	-6	-3.5	-11	7
CCOC(=O)c1c(N)sc2c(OCC)c(Br)ccc12	4%	1	5.2	94	7
Cc1nnc(N/N=C/c2cccc(OCc3ccc(Cl)c(Cl)c3)c2)n1N	?	-15	74*	100	-13
CCOc1ccc(Nc2oc(-c3ccccc3Cl)nc2C#N)cc1	-9%	2	-0.2	25	-24
COC(=O)C1=C(COc2ccc(C=O)cc2OC)NC(=O)NC1c1cc(C)ccc1C (centres undefined)	-4%	-17	-1.2	-3	2
CCc1c(O)nc(SCC(=O)NCc2ccco2)[nH]c1=O	-2%	-39	0.8	11	-5
CN(C)S(=O)(=O)c1ccc(NC(=O)CN2CCN(C(c3ccccc3)c3ccccc3)CC2)cc1	-2%	-42	-0.7	-5	-5
CCC(=O)NCC(=O)OCC(=O)c1ccccc1	1%	0	0.4	-8	-2
COc1ccc(-c2nc(C#N)c(N3CCc4ccccc4C3)o2)cc1OC	24%	10	-2.4	98	-1
COc1ccccc1-n1c(SCC(=O)NC(C)(C)C)nc(O)c(Cc2ccccc2)c1=O	3%	-13	-1.9	-8	11
C=CCn1c(SCC#N)nnc1-c1ccc2ncccc2c1	-1%	/	3.8	-2	/
CN(C)c1ccc(/C=N/NC(=S)NCc2ccccc2)cc1	-11%	-12	-7.5	0	-5
CCN(CC(=O)NCCc1ccc(Cl)cc1)Cc1nc2ccccc2c(=O)[nH]1	14%	/	-1.8	10	-3
COc1ccc(CCNC(=O)C2CCCN(c3nn4c(=O)cc(C)nc4s3)C2)cc1OC (centres undefined)	-2%	-4	-0.4	/	-1
O=C(O)Cn1c(CC(=O)N2CCCC2)nc2ccccc21	-5%	-27	3.2	-3	9
CCS(=O)(=O)NCC(c1cccnc1)N1CCN(c2ccccc2F)CC1 (centres undefined)	-8%	-24	-0.3	-8	10
CCN1CCN(c2ccc(NC(=O)c3ccccc3F)cc2Cl)CC1	7%	/	1.0	0	-14
COc1ccc(N2CCN(C(=O)CCc3cc(OC)c(OC)c(OC)c3)CC2)cc1	/	/	-2.2	1	/
CC(C)CCNC(=O)c1ccc(Cl)c(NC(=O)Cc2ccccc2)c1	7%	-21	-4.8	0	2
CCOc1ccc(NC(=S)c2ccc3ccccc3n2)cc1	/	/	-0.7	72	/
CCN(c1cccc(C)c1)c1nc2ccsc2c(=O)s1	-5%	-27	5.4	4	2
Cc1cc(C)nc(NS(=O)(=O)c2ccc(N/C=C\C(=O)c3ccc(Cl)cc3)cc2)n1	7%	0	-4.6	7	7
CN(C)S(=O)(=O)N1CCC(Oc2cccc(C(=O)N3CCCCCC3)c2)CC1	/	/	-0.1	-16	/
CC1(C)Cc2ccccc2C(/C(C#N)=N/O)=N1	0%	/	1.4	7	-5
COc1ccc(C(=O)O)cc1NC(=S)NC(=O)/C=C/c1ccc(C(C)C)cc1	/	/	9.2	29	/
COc1ccc(Nc2nc(-c3ccccc3)cs2)cc1	5%	-2	5.0	/	6
COc1ccc(C(=O)OCC(=O)Nc2cccc(C(C)=O)c2)cc1OC	/	/	-1.4	-9	/
Cc1ccc(-n2c(O)c(C=NC3CCS(=O)(=O)C3)c3ccccc3c2=O)c(C)c1 (centres undefined)	1%	/	-2.2	-7	/
Cc1ccc(CNCCc2ccccc2F)cc1	8%	-28	1.0	-4	4
CC(OC(=O)CNC(=O)C12CC3CC(CC(C3)C1)C2)C(=O)Nc1ncc(Cl)cc1Cl (centres undefined)	-9%	-49	1.2	-7	9
Cc1cc(C)cc(N2C(=O)N(c3ccccc3C)C3CS(=O)(=O)CC32)c1 (centres undefined)	6%	-5	0.1	5	0
CCCCN1C[C@H](O)[C@@H](O)[C@H](O)[C@H]1CO	-10%	-35	-1.9	-4	-1
Cc1nc(SCC(=O)Nc2ccc3c(c2)OCCO3)nc(C)c1C	-9%	/	2.2	-5	-7
CCOC(=O)c1cccc(NC(=O)c2ccccc2C)c1	-10%	/	-3.7	7	8
CCN(CC)CCNC(=O)c1cc2ccccc2nc1Cl	6%	/	-2.4	-5	1
CC(=O)n1nc(-c2ccc(C)cc2)nc1NCc1ccc(F)cc1	4%	/	1.6	/	-6
COc1ccc(C(CNC(=O)c2ccc(-c3ccccc3)cc2)N(C)C)cc1OC (centres undefined)	/	/	1.0	3	/
CCN(CC)S(=O)(=O)c1ccc(S(=O)(=O)Nc2ccc(C(=O)N3CCCC3)cc2)cc1	-5%	-43	-0.1	3	-7
O=C(NCc1ccc(Cl)cc1)c1cc2ccccc2oc1=O	/	/	0.3	36	/
COC(=O)CSc1nnc(CNc2ccc(OC)cc2)n1C	10%	-40	-5.4	26	-1
C/C(=N\NC(=O)c1ccccc1)c1ccccc1Br	14%	-24	1.6	17	0
Cc1ccc(C2Nc3cccc4cccc(c34)N2)s1	/	-14	4.9	7	0
CCCc1ccc(OCC(O)CN2CCN(CCO)CC2)cc1 (centres undefined)	/	/	0.5	-2	/
O=c1[nH][nH]cc1C=Nc1ccc(Oc2ccccc2)cc1	15µM*	/	-1.5	97	-7
COc1ccc(-c2csc(NC(=O)COC(=O)c3ccc(Br)o3)n2)cc1	9%	-38	0.8	12	-5
COc1cc(OC)cc(C(=O)N2CCN(C(=O)Cc3ccccc3)CC2)c1	-17%	/	-0.9	-1	-3
COc1ccc(OC)c(NC(=O)c2cc(-c3cc(Cl)ccc3O)n[nH]2)c1	6%	-19	0.3	5	22
Later entries
SMILES	Mtb growth	YopH PTP inh	RecA splice inh	Mtb betalactam	Arbovirus anti
Cc1ccc(-n2nc(C(=O)N3CCN(C)CC3)c3c4ccccc4n(C)c3c2=O)cc1	12%	-6	-2.6	-8	/
Nc1nc(SCC(=O)NCC2CCCO2)[nH]c(=O)c1NC(=O)c1ccc(F)c(F)c1 (centres undefined)	/	/	-3.2	10	/
Cc1cc(CN2CCCC(N3CCc4ccccc4C3)C2)cc(C)c1O (centres undefined)	/	/	-3.6	3	/
Nc1nnc(-c2ccc(F)cc2)s1	3%	7	0.7	/	-5
Cc1ccc(NC(=O)CN(C)C(=O)Cn2ncc(Cl)c(Cl)c2=O)cc1	5%	-5	10	44	-33
Cc1ccc(Cn2c(C(CO)Nc3nc(-c4ccc(F)cc4)cs3)nc3ccccc32)cc1 (centres undefined)	40%	/	16	99	/
CC(=O)[C@H]1CC[C@H]2[C@@H]3CCC4=CC(=O)CC[C@]4(C)[C@H]3[C@H](O)C[C@]12C	1%	-46	5.2	4	2
CCCCC(=O)Nc1ccc(NC(=O)C(C)C)cn1	1%	-35	-0.2	-7	-18
O=C(CN1C(=O)S/C(=C/c2ccncc2)C1=O)N1CCOCC1	-5%	-48	0.4	4	5
COc1ccc(O)c(C(=O)c2cc(C(=O)NCCc3ccccc3)c(=O)n(CCc3ccccc3)c2)c1	18%	-4	0.3	7	5
Cc1cc(C)n2nc(C(=O)N/N=C/c3c4ccccc4cc4ccccc34)nc2n1	-3%	-20	-18	6	-2
Cn1cc(S(=O)(=O)c2ccccc2)c(=O)c2cc(F)c(N3CCOCC3)cc21	/	/	-2.2	0	/

The list goes on; the last two above are carried over.
SMILES	Mtb growth	YopH PTP inh	RecA splice inh	Mtb betalactam	Arbovirus anti
Cc1cc(C)n2nc(C(=O)N/N=C/c3c4ccccc4cc4ccccc34)nc2n1	-3%	-20	-18	6	-2
Cn1cc(S(=O)(=O)c2ccccc2)c(=O)c2cc(F)c(N3CCOCC3)cc21	/	/	-2.2	0	/
Cc1ccc(NCC(=O)Nc2c(C)n(C)n(-c3ccccc3)c2=O)cc1S(=O)(=O)N(C)C	-2%	/	0.4	-5	/
COc1ccc(CC(=O)OCC(=O)Nc2ncc(Cl)cc2Cl)cc1	-15%	-31	-8.1	-4	0
CN(C)c1ccc(C(=O)NCC2CCCO2)cc1 (centres undefined)	-9%	-16	-1.1	0	8
CCCN(CCC)CCCNC(=O)c1cn(CC)c2ccc(S(=O)(=O)N3CCc4ccccc4C3)cc2c1=O	1%	/	/	-7	-30
Cc1cc(C)c(S(=O)(=O)NCC(c2cccnc2)N2CCN(Cc3ccccc3)CC2)c(C)c1 (centres undefined)	/	/	-0.9	7	/
CC(=O)Nc1cccc(NC(=O)Cc2ccc3ccccc3c2)c1	/	/	-0.8	1	/
CCOc1ccccc1/C=N/n1c(C2CCCCC2)n[nH]c1=S	/	/	2.1	?	/
COc1ccc(NS(=O)(=O)c2cccc(C(=O)Nc3ccccc3C(=O)O)c2)cc1	/	/	0.9	-1	/
CSc1sc(C(=O)O)c(C)c1C(C)=O	1%	-32	1.5	0	11
CCCNc1nc(-c2cc(-c3ccc(Cl)cc3)on2)cc(C(C)C)n1	0%	/	-1.1	38	/
Cc1nc2ccc(NC(=O)Cc3ccc4c(c3)OCCO4)cc2s1	-7%	-18	-5.3	-6	4
O=C(CSc1ccc2nnc(-c3cccc(F)c3)n2n1)NCC1CCCO1 (centres undefined)	-5%	-9	-0.9	-3	8
CC1=C(C#N)C(c2cccnc2)C2=C(CCCC2=O)N1 (centres undefined)	3%	-18	/	-4	-3
COc1cc2c(cc1OC)-c1cc(OCc3cccnc3)nc(=O)n1CC2	-7%	34	/	/	8
O=c1[nH]ccc2c(O)cccc12	0%	/	-13	-2	/
CCn1cnc2cc(NCc3ccc(OC)cc3)ccc21	-2%	-16	0.8	3	6
CCCn1ncc(CN2CCC(n3nccc3NC(=O)c3ccccc3OC)CC2)c1C	/	/	-0.4	-8	/

Structural class, the entries above containing a Cl atom
SMILES	Mtb growth	YopH PTP inh	RecA splice inh	Mtb betalactam	Arbovirus anti
O=C(/C=C/c1c(Cl)cccc1Cl)NCCc1ccccc1	0%	-38	0.1	-2	-1
COc1ccc(CNC(=O)CN(Cc2ccc(Cl)cc2)S(C)(=O)=O)cc1	6%	-6	-3.5	-11	7
Cc1nnc(N/N=C/c2cccc(OCc3ccc(Cl)c(Cl)c3)c2)n1N	?	-15	74*	100	-13
CCOc1ccc(Nc2oc(-c3ccccc3Cl)nc2C#N)cc1	-9%	2	-0.2	25	-24
CCN(CC(=O)NCCc1ccc(Cl)cc1)Cc1nc2ccccc2c(=O)[nH]1	14%	/	-1.8	10	-3
CCN1CCN(c2ccc(NC(=O)c3ccccc3F)cc2Cl)CC1	7%	/	1.0	0	-14
CC(C)CCNC(=O)c1ccc(Cl)c(NC(=O)Cc2ccccc2)c1	7%	-21	-4.8	0	2
Cc1cc(C)nc(NS(=O)(=O)c2ccc(N/C=C\C(=O)c3ccc(Cl)cc3)cc2)n1	7%	0	-4.6	7	7
CC(OC(=O)CNC(=O)C12CC3CC(CC(C3)C1)C2)C(=O)Nc1ncc(Cl)cc1Cl (centres undefined)	-9%	-49	1.2	-7	9
CCN(CC)CCNC(=O)c1cc2ccccc2nc1Cl	6%	/	-2.4	-5	1
O=C(NCc1ccc(Cl)cc1)c1cc2ccccc2oc1=O	/	/	0.3	36	/
COc1ccc(OC)c(NC(=O)c2cc(-c3cc(Cl)ccc3O)n[nH]2)c1	6%	-19	0.3	5	22
Cc1ccc(NC(=O)CN(C)C(=O)Cn2ncc(Cl)c(Cl)c2=O)cc1	5%	-5	10	44	-33
COc1ccc(CC(=O)OCC(=O)Nc2ncc(Cl)cc2Cl)cc1	-15%	-31	-8.1	-4	0
CCCNc1nc(-c2cc(-c3ccc(Cl)cc3)on2)cc(C(C)C)n1	0%	/	-1.1	38	/
